Screening data from PubChem.
eIF4H inh: human eIF4H binding inhibitors, primary screen, translation initiation inhibitor project, biochemical, uHTS, fluorescence polarization. Eukaryotic translation initiation factor 4H (Homo sapiens), Q15056. eIF4H fluorescence polarization binding assay. inhibition, % at 35 µM. actives 0.94% (n = 290,000). AID 2012, 2009;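 active = 50% or more with normal probe brightness, or confirmed in later tests; about a fifth of its hits are not listed in these tables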;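 also: calls also rest on retests at 20 µM and on dose response follow-up; 0% = protein and probe with vehicle and 100% = probe without protein; strong numbers were not always called active; many hits fall short of the cut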
Env fusion inh: inhibitors of HIV-1 Env-driven cell-cell fusion, primary screen, HeLa-JRFL effector, CEM21 target cells, luciferase; actives 1.1% (n = 360,000); inhibition, % at 12.3 µM;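 active = mean replicate inhibition score of at least 50 and every replicate individually at or above 50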;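 also: 0% = plate neutral controls and 100% = maraviroc near 300 nM; one replicate is shown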
PABP FP inh: PABP poly(A) RNA binding inhibitors, primary screen, biochemical, fluorescence polarization, uHTS. Polyadenylate-binding protein 1 (Homo sapiens), P11940. inhibition, % at 35 µM. actives 1% (n = 290,000). AID 2014, 2009;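 active = 50% or more with normal probe brightness, or confirmed in later tests; about a fifth of its hits are not listed in these tables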;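 also: calls also rest on retests at 20 µM and on dose response follow-up; controls were probe without protein and protein plus probe with vehicle; some compounds called inactive have numbers as strong as hits; many hits fall short of the cut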
Target sequence (P11940 whole entry, looked up): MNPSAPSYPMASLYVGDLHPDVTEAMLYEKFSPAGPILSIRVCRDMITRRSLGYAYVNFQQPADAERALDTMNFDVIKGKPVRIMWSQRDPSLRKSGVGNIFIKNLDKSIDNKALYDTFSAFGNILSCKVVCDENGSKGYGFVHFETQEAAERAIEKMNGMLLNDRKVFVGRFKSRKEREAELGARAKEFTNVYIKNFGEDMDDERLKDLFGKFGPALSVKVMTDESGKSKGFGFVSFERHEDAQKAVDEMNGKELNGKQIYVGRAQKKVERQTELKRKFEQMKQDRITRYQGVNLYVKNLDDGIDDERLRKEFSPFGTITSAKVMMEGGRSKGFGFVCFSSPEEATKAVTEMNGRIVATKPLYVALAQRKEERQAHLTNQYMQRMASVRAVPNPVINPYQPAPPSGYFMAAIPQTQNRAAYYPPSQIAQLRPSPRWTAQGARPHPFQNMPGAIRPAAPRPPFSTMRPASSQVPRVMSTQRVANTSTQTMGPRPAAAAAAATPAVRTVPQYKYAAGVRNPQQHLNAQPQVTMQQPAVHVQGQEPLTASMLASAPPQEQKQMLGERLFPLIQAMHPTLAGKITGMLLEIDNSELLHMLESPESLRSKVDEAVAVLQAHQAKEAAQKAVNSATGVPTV
CSC inhib: cancer stem cell viability inhibitors, primary screen, luminescence. cancer stem cell-like cells viability. inhibition, % at 7.5 µM. actives 1.1% (n = 300,000);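 active = mean at 75% or more and at least half the replicates too; tested in HMLE shEcad cells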;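 also: 0% = median of negative and 100% = median of positive control wells; the first replicate is given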
Rce1 inh: yeast Rce1p protease inhibitors, primary screen, biochemical, fluorescence, cell-free homogeneous; yeast membranes, quenched prenylated peptide cleavage fluorescence; calls only; actives 0.27% (n = 290,000); AID 2563, 2010;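 active = fall in fluorescence gain of 50% or more versus controls, with final raw signal at or below 3038400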;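 also: plate controls were neutral control wells for no effect and wells lacking membranes for full effect; tested at 10 µM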
MT1-MMP act inh: blockers of MT1-MMP proenzyme processing, primary screen, HT1080 RFP-PRO-GFP cells, GFP/RFP fluorescence; Matrix metalloproteinase-14 (Homo sapiens), P50281; GFP/RFP ratio fluorescence, overnight; percent of plate control window, DMSO zero; GFP/RFP ratio change, % at 20 µM; actives 0.061% (n = 360,000); AID 651647, 2012;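 active = GFP/RFP ratio change of at least 30% with cell ATP level not reduced by more than half and red fluorescence within 50% of control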; also: strong numbers were not always called active
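Assay system: HT1080 cells carrying an RFP-PRO-GFP reporter | Dosing: Single dose of 20 µM compound, 1% DMSO final | Incubation: Cells overnight before dosing, compound overnight, 37 °C, 5% CO2 | Evaluation: GFP/RFP fluorescence ratio | Control set: DMSO and RFP-L50D-GFP cell wells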
UUG fidelity: modulators of yeast start codon fidelity, primary screen, whole organism, S. cerevisiae, single point, plate reader. activity score, % at 18.7 µM. S. cerevisiae UUG-firefly luciferase reporter, luminescence/redox ratio. AID 602363, 2012. actives 0.13% (n = 350,000);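 active = replicate mean at a twofold rise or more, about +100% in these data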;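 also: firefly luciferase made from a UUG start codon reports start codon fidelity; reporter light over untreated wells divided by growth signal over untreated wells; some hits fall short of that in this replicate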
eIF4H inh retest: also measured in eIF4H inh; calls as there; inhibition, %; compound at 20 µM; confirmation average;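 mean of two retest wells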
PABP FP inh retest: second read-out of PABP FP inh, no call of its own (marks repeat the call); inhibition, %; compound at 20 µM; confirmation repeats;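 mean of two retest wells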
MT1-MMP act inh RFP: further read-out of MT1-MMP act inh, marked with its call; RFP signal change, %; measured here: RFP expression control read;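 0 = vehicle wells; hits needed this value within 50% of zero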
* hit, by the source's call; i = inactive; / = no result given.

SMILES	eIF4H inh	Env fusion inh	PABP FP inh	CSC inhib	Rce1 inh	MT1-MMP act inh	MT1-MMP act inh RFP	UUG fidelity	others
Cc1ccc(C)c(S(=O)(=O)N2CC(=O)Nc3ccccc32)c1	1.6	-16.0	-2.7	-0.2	i	0.9	0.7	-7.4
COc1ccc(NC(=O)CN2CCN(c3ccccc3C)CC2)cc1	1.1	-3.5	2.0	6.8	i	4.9	1.4	-6.8
Cc1nn(Cc2ccc(Cl)cc2)c(C)c1NC(=O)CCCn1nc(C)c([N+](=O)[O-])c1C	-0.8	7.0	0.7	9.1	i	2.4	-5.1	/
CCCn1c2ccccc2c2nnc(SC(CC)C(=O)Nc3cc(C)on3)nc21 (stereo not given)	1.1	/	8.5	-14.2	/	-4.5	-13.2	6.9
CCOC(=O)Cc1csc(NC(=O)Nc2ccc(OC(F)(F)F)cc2)n1	-10.7	-8.2	-1.1	-2.5	i	-8.8	-31.0	-11.0
CC(C)CNC(=O)CN(c1ccccc1)S(=O)(=O)c1ccccc1[N+](=O)[O-]	-8.0	5.4	-1.9	/	i	-3.8	1.4	0.8
CN(C)CCCNCCCCNC(=O)/C=N/O	16.2	-26.2	60.8*	-9.3	i	1.2	3.4	-28.7
Cc1ccccc1-n1ncc2c1CC(C)(C)CC2NC(=O)CCC1=NNC(=O)CC1 (stereo not given)	/	-6.8	/	-9.2	i	-7.3	-0.8	-16.1
COCCNC(=O)C1Cc2cc(S(=O)(=O)N3CCCC3)ccc2N1C(C)=O (stereo not given)	-4.1	-9.3	11.9	-16.4	i	-3.0	-3.0	-17.7
O=C1NC(NS(=O)(=O)c2ccc(Cl)cc2)(C(F)(F)F)C(=O)N1CCc1ccccc1 (stereo not given)	-0.3	8.5	12.2	0.2	i	/	/	/
c1ccc(Nc2ccc(-n3ccnc3)nn2)cc1	-3.4	-3.8	-1.7	-12.6	i	-0.6	-1.9	/
CCCn1nnnc1SCC(=O)c1ccc(NC(C)=O)cc1	-11.1	-8.1	-11.6	2.9	i	-1.9	0.5	-17.3
COc1ccc(N2C(=O)C3CCCN3C2c2ccc(C)o2)cc1Cl (stereo not given)	3.2	-48.6	9.4	-12.4	i	-2.9	1.8	-12.7
C=CCN1C=C(C(C)=O)C(=O)CC1	/	7.6	/	/	/	3.2	5.3	-2.4
COCc1cc(Sc2ccc(Cl)cc2)nc(-c2ccccc2)n1	2.9	/	1.9	-10.7	/	-5.0	-2.3	-27.9
CN(C)c1ccc(C(=O)N/N=C/c2cc(Br)cc(Br)c2O)cc1	18.5	18.4	9.2	66.9	i	-2.5	-4.2	-6.7
CC(=O)N1c2ccc(S(=O)(=O)NCC3CCC(C(=O)NC4CCCCC4)CC3)cc2CC1C (stereo not given)	1.9	-0.7	9.3	-10.6	i	0.0	-6.3	-4.9
O=C(Oc1ccc(C(=S)N2CCOCC2)cc1)c1cccc(Cl)c1	-5.0	2.8	-12.9	-9.3	i	-3.5	-0.8	0.8
COc1ccc(NC(=O)CN(C)S(=O)(=O)c2ccc3c(c2)CCCN3C(C)=O)cc1	4.3	6.7	5.8	-13.6	i	-6.0	0.0	-7.8
CCC(=O)Nc1nc2c(s1)COc1ccccc1-2	-6.4	-29.4	-5.5	16.1	i	-1.0	-9.4	-15.9

By substructure, the entries above with fluorine (two)
SMILES	eIF4H inh	Env fusion inh	PABP FP inh	CSC inhib	Rce1 inh	MT1-MMP act inh	MT1-MMP act inh RFP	UUG fidelity	others
CCOC(=O)Cc1csc(NC(=O)Nc2ccc(OC(F)(F)F)cc2)n1	-10.7	-8.2	-1.1	-2.5	i	-8.8	-31.0	-11.0
O=C1NC(NS(=O)(=O)c2ccc(Cl)cc2)(C(F)(F)F)C(=O)N1CCc1ccccc1 (stereo not given)	-0.3	8.5	12.2	0.2	i	/	/	/

Continued:
SMILES	eIF4H inh	Env fusion inh	PABP FP inh	CSC inhib	Rce1 inh	MT1-MMP act inh	MT1-MMP act inh RFP	UUG fidelity	others
COc1cc(C(=O)OCC(=O)c2ccc(S(=O)(=O)N3CCCCC3)cc2)cc(OC)c1OC	/	/	/	2.0	/	-5.0	-10.3	-10.8
O=C(N/C(=C/c1ccc(F)cc1)C(=O)N1CCOCC1)c1ccccc1	-2.4	2.3	8.3	/	i	-0.3	1.2	-15.4
CN1/C(=C\P(=O)(N(C)C)N(C)C)C(C)(C)c2ccccc21	49.9	/	35.5	0.5	i	99.4	84.6	-11.6
COc1ccc(OC)c(CCNC(=O)CCn2nc(C)c3c(C)n(-c4ccccc4)nc3c2=O)c1	-5.4	-4.0	-1.6	-11.3	i	-1.2	0.7	2.9
O=C(NCc1ccccc1)c1cnc(-c2ccccn2)nc1C(F)(F)F	8.2	-16.9	5.1	-0.8	i	-4.3	-2.9	-34.6
O=c1[nH]n(-c2ccccc2)c(=O)cc1Cl	/	2.7	/	/	/	1.7	0.0	-16.4
CC(=O)N1C(=O)NC(c2ccccc2)=C([N+](=O)[O-])C1c1ccccc1 (stereo not given)	-9.8	-7.9	-4.6	0.0	i	-4.7	0.0	-8.6
O=C(O)c1ccccc1SCc1ccc2c(c1)OCO2	-14.2	/	-6.8	13.3	i	-5.5	-6.9	-46.2
COc1ccc(OCCN(C)Cc2c(O)ccc3ccccc23)cc1	2.5	17.5	19.8	-4.3	i	-1.3	3.0	-13.4
COc1cccc2sc3cc(NCC[C@@H]4CCCN4C)ccc3c(=O)c12	/	-129.9	/	6.7	/	3.9	0.2	-19.3

Reprinted from the listing, 7 compounds:
SMILES	eIF4H inh	Env fusion inh	PABP FP inh	CSC inhib	Rce1 inh	MT1-MMP act inh	MT1-MMP act inh RFP	UUG fidelity	others
COc1cc(C(=O)OCC(=O)c2ccc(S(=O)(=O)N3CCCCC3)cc2)cc(OC)c1OC	/	/	/	2.0	/	-5.0	-10.3	-10.8
O=C(N/C(=C/c1ccc(F)cc1)C(=O)N1CCOCC1)c1ccccc1	-2.4	2.3	8.3	/	i	-0.3	1.2	-15.4
CN1/C(=C\P(=O)(N(C)C)N(C)C)C(C)(C)c2ccccc21	49.9	/	35.5	0.5	i	99.4	84.6	-11.6
COc1ccc(OC)c(CCNC(=O)CCn2nc(C)c3c(C)n(-c4ccccc4)nc3c2=O)c1	-5.4	-4.0	-1.6	-11.3	i	-1.2	0.7	2.9
O=C(NCc1ccccc1)c1cnc(-c2ccccn2)nc1C(F)(F)F	8.2	-16.9	5.1	-0.8	i	-4.3	-2.9	-34.6
O=c1[nH]n(-c2ccccc2)c(=O)cc1Cl	/	2.7	/	/	/	1.7	0.0	-16.4
CC(=O)N1C(=O)NC(c2ccccc2)=C([N+](=O)[O-])C1c1ccccc1 (stereo not given)	-9.8	-7.9	-4.6	0.0	i	-4.7	0.0	-8.6

New compounds follow:
SMILES	eIF4H inh	Env fusion inh	PABP FP inh	CSC inhib	Rce1 inh	MT1-MMP act inh	MT1-MMP act inh RFP	UUG fidelity	others
COc1ccc(OCCc2nnc(N)s2)cc1	4.4	-22.0	3.5	0.4	i	-4.5	0.5	-3.8
Cc1cc(C)c(C)c(S(=O)(=O)N2CCN(C(=O)c3cc(=O)[nH]c4ccccc34)CC2)c1C	1.3	19.1	2.1	17.0	i	-2.0	-3.9	39.4
O=C(N[C@@H](c1ccccc1)[C@@H]1C[C@H]1C(=O)O)OCc1ccccc1	-11.5	14.3	-13.9	-2.6	i	1.9	2.0	-6.7
COP1(=O)C[C@@H](O)[C@@H](O)[C@@H](COCc2ccccc2)O1 (stereo not given in full)	-3.9	-7.0	0.6	-8.4	i	1.2	-0.1	-7.0
COc1ccc(CC(=O)N/N=C(\C)c2cccnc2)cc1OC	-3.3	-97.9	3.0	-8.7	i	-1.4	3.2	-6.4
CN(CC(=O)NCc1ccccn1)S(=O)(=O)c1ccc(F)cc1	7.3	3.0	1.9	-10.3	i	-1.7	3.4	/
CN(C)c1ccc(NS(=O)(=O)c2ccc(-c3csnn3)cc2)cc1	-2.6	-4.7	-1.1	-0.6	/	5.2	-11.7	-7.8
Cc1cc(C(=O)NC2CCCN(Cc3ccccc3F)C2)no1 (stereo not given)	-4.0	15.0	1.1	-1.2	i	-1.4	0.6	-8.6
NC(c1ccccc1)c1csc(NC(=O)NCCc2ccccc2)n1 (stereo not given)	/	27.3	/	/	/	0.2	0.2	-4.9
O/N=C1\CCCC\C1=C/c1ccccc1	0.0	1.3	-5.1	-7.7	i	0.9	-2.0	-20.2
CCOc1ccc(OCc2cccc(C(=O)O)c2)cc1	-2.6	/	-3.7	49.4	i	2.1	9.2	-92.8
CC1(C)CC(=O)C2=C(C1)NC1=C(C(=O)c3ccccc31)C2c1ccccc1 (stereo not given)	13.7	6.2	5.9	-9.5	i	4.6	-5.6	/
CC1(c2nnc(-c3cccc(Cl)c3)o2)CC(c2ccc(F)cc2)=NO1 (stereo not given)	/	0.9	/	2.8	i	2.1	-2.2	-19.5
O=c1c(-c2ccccc2)c(O)c2cccc3c2n1CCC3	2.5	/	10.6	/	i	4.6	5.9	-10.7
O=C(OCc1nnc(-c2ccccc2)o1)C12CC3CC(CC(Br)(C3)C1)C2	0.3	2.5	-4.4	/	i	-0.4	2.3	/
Cc1noc(C)c1C(=O)OCC(=O)NC(=O)c1ccc(C(C)(C)C)cc1	/	3.9	/	/	/	-3.1	-2.5	0.1
O=C(NCCN1CCCCC1)c1ccc(Oc2cc(Cl)cc(Cl)c2)o1	-6.2	12.0	-11.9	25.2	i	3.1	2.6	-7.2
CN(C)Cc1c(O)ccc2occ(C(O)c3ccccc3)c12 (stereo not given)	6.6	/	4.0	6.5	i	-0.3	-0.6	/
CCc1ccccc1NC(=O)C1CCCN(c2nccc(C)n2)C1 (stereo not given)	-1.1	14.6	5.2	-9.3	i	3.6	1.4	-8.1
CC(C)C(=O)O/N=C(\N)c1ccccn1	-4.4	-3.8	-4.1	/	i	3.1	4.3	/
CCn1ncc(Cl)c1C(=O)Nc1cc([N+](=O)[O-])ccc1OC	0.2	/	117.7	-10.4	i	-1.0	-3.7	-17.1	eIF4H inh retest=-7.0;PABP FP inh retest=5.4
Cc1cc(C)n(CC(O)Cn2c3ccc(Cl)cc3c3cc(Cl)ccc32)c(=O)n1 (stereo not given)	-2.8	/	-2.7	18.7	i	4.9	-4.3	-21.9
O=C(COC(=O)c1cccc(S(=O)(=O)N2CCOCC2)c1)Nc1ccc(Cl)cn1	/	/	/	-15.4	/	-3.7	-0.3	-1.0
O=S(=O)(c1ccccc1)N1CCC(=NO)CC1	3.4	11.6	-2.3	-9.9	i	3.5	-0.3	/
O=C(O)CCC(=O)c1ccc2c(c1)CCCC2	-6.5	-5.2	5.0	2.4	i	-4.9	-4.3	-16.3
Cc1nc2ncnn2c(C)c1CCC(=O)N1CCOCC1	-3.2	-126.5	-16.6	-4.2	i	3.5	2.8	-20.7
C=CCC(NCCCO)c1cccc(OC)c1OC (stereo not given)	-0.4	/	-5.2	-2.3	i	3.1	2.3	-9.3
C/C(Cl)=C/Cc1c(C)[nH]c2c(ccc3ccccc32)c1=O	0.1	-11.2	-13.9	-20.1	i	4.5	-4.9	-8.6
COc1ccc(CNS(=O)(=O)c2ccc(F)c(C(=O)Nc3ccccc3OC)c2)cc1	-5.6	14.8	40.6	-1.8	i	-1.9	1.7	/
O=C(Nc1ccc2nn(-c3ccccc3)nc2c1)c1ccco1	5.0	/	1.0	/	i	2.8	0.6	-4.5

Not all compounds are listed, so the mix of outcomes need not match the whole.
